VCAM-1 up – boosters of cytokine-driven VCAM-1 levels – cell-based, plate reader, pooled HUVEC, TNFa stimulus (AID 455) | HUVEC TNFa-induced VCAM-1 immunofluorescence, plate reader; numbers were filed only for top-ranked candidate wells | augmentation, % at 5 µM | 0.2% of 10,000 active;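 active = a compound raising TNF-alpha-driven VCAM-1 surface staining, with its hit status upheld on visual or statistical review; inactive = the rest, including hits rejected on review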;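 also: 0% = TNFa with vehicle and 100% = strongest image-checked hit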
Proteasome disasm – blocks ATP-dependent breakdown of the yeast 26S proteasome | anti-FLAG beads, GFP-proteasome disassembly, flow cytometry | inhibition of disassembly, % (concentration not given with the values) | 0.2% of 24,000 active | AID 751;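 active = above 40%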;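 also: plate controls were ATP control with full disassembly for no effect and ATP-gamma-S intact proteasomes for full effect; higher percent means more bead fluorescence retained so stronger block of disassembly; stock transfer was 100 nL into about 10 µL; wells with too few beads may also be inconclusive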
Starred values were filed as active, the others as inactive; i = inactive; . = not tested or not shown. A portion of the library. The share of hits here may be higher or lower than overall.

SMILES	VCAM-1 up	Proteasome disasm
COCCN(CCOC)C(=O)CCn1c(=O)oc2ccccc21	i	-1.2
CCOCCCn1c(=S)[nH]c2cc(C(=O)N3CCN(C)CC3)ccc2c1=O	.	-0.6
COc1ccc(C2NC(c3ccc(OC)c(OC)c3OC)C(C)C(=O)C2C)c(OC)c1OC (stereo not given)	i	-0.7
C=CCn1cnc2c(c1=O)c1nc3ccccc3nc1n2-c1ccc(C)cc1	i	-3.5
CN(C)c1ccc(C2N3CC4(C)CN2CC(C)(C3)C4O)cc1 (stereo not given)	.	1.2
COc1ccc(C(=O)Nc2nnc(-c3ccccc3)o2)cc1OC	.	0.1
CC(C)N1C(=O)CCC1C(=O)NCc1ccccc1Cl (stereo not given)	.	-0.9
CCOC(=O)N1CCC(C(=O)Nc2ccc(OCC)cc2)CC1	.	-0.3
O=C(c1cn(-c2ccccc2)nc1-c1cccs1)N1CCN(c2ccccn2)CC1	i	-3.0
Cc1ccc(NC(=O)C2CCCN(S(=O)(=O)c3c(C)noc3C)C2)nc1 (stereo not given)	.	-2.5
COc1ccc(C2(C(=O)NCCCN(C)C)CCOCC2)cc1	.	1.8
CCSc1cc(C2C(C(=O)OC)=C(C)NC3=C2C(=O)CCC3)c(C)o1 (stereo not given)	i	0.0
CCCOc1ccc2ccccc2c1/C=N/n1cnnc1	i	1.4
COc1cccc(NC(=O)CC2SC(=Nc3ccccc3)NC2=O)c1 (stereo not given)	i	-1.4
COC(=O)c1ccccc1NS(=O)(=O)c1ccc(F)cc1	i	-2.5

Single records, as listed above. Screens in order: VCAM-1 up | Proteasome disasm
Listed for COCCN(CCOC)C(=O)CCn1c(=O)oc2ccccc21 = i | -1.2
Listed for CC(C)N1C(=O)CCC1C(=O)NCc1ccccc1Cl (stereo not given) = . | -0.9
Listed for COc1ccc(C2NC(c3ccc(OC)c(OC)c3OC)C(C)C(=O)C2C)c(OC)c1OC (stereo not given) = i | -0.7
Listed for COC(=O)c1ccccc1NS(=O)(=O)c1ccc(F)cc1 = i | -2.5
Listed for COc1cccc(NC(=O)CC2SC(=Nc3ccccc3)NC2=O)c1 (stereo not given) = i | -1.4

Other entries
SMILES	VCAM-1 up	Proteasome disasm
Cc1cc(NC(=O)Cn2c(=O)n(Cc3ccccc3)c(=O)c3ccccc32)no1	.	0.7
COc1ccc(Br)cc1CNC(=O)CCc1nc(-c2ccccc2F)no1	.	1.7
CCCCc1ccc(NC(=O)N[C@H](C(=O)O)C(C)C)cc1	i	-1.2
O=C(O)c1cccc(NS(=O)(=O)c2ccc3nnn(O)c3c2)c1	i	0.4
Cn1c(=O)c2c(nc(SCC(=O)NCc3ccco3)n2C)n(C)c1=O	i	1.1
CC1(C)CC(=O)C2=C(C1)OC(=O)C2(NC(=O)c1cccs1)C(F)(F)F (stereo not given)	i	0.4
CCc1ccccc1NC(=O)c1nnn(CC(=O)Nc2cccc(C)c2C)c1N	.	0.1
Cc1cc(NC(=O)COC(=O)c2cccc(S(=O)(=O)N3CCOCC3)c2)no1	i	0.1
CCCc1nc(N)c(C#N)c(-c2cccnc2)c1CC	.	-0.6
Cn1c(=O)c(NC(=O)c2ccccc2)c2n(c1=S)CCCCC2	i	-1.3
CSc1n[nH]c(NCc2ccccc2)n1	i	-0.6
Cc1nc2ccccn2c1C(=O)NCCCN1CCOCC1	i	-1.0
CC1CCCC(C)N1CCCNC(=O)Cn1cc2c(n1)CCCC2 (stereo not given)	.	-2.8
O=C(NCc1ccc2c(c1)OCO2)C1CCN(Cc2cnn(-c3ccccc3)c2-n2cccc2)CC1	.	1.2
O=C(CSc1nnnn1C1CCCC1)N1CCN(C(=O)c2ccco2)CC1	i	0.2
O=C(O)c1cccc(COCC(F)(F)C(F)F)c1	i	1.9
CCOc1ccc(C2C(C(=O)OC)=C(C)N=C3SCCC(=O)N32)cc1OCC (stereo not given)	.	-2.0
Cc1cc(C)c(C(=O)Nc2ccc(S(=O)(=O)Nc3onc(C)c3C)cc2)c(C)c1	i	-0.5
COc1cccc(-c2nnc3sc(-c4ccc(C)cc4)nn23)c1	i	-1.1
CCOC(=O)C1CCCN(C(=O)C2CCN(S(=O)(=O)c3cnc[nH]3)CC2)C1 (stereo not given)	.	-1.2
CCOCCCN1CC(C(=O)NCCc2ccccc2)CC1=O (stereo not given)	.	-1.3
O=C1CC(Sc2nnc(-c3ccccc3)o2)C(=O)N1c1ccccc1 (stereo not given)	i	2.0
Cc1cccc(-n2ncc3c(NCc4cccnc4)ncnc32)c1	i	0.1
Cc1nn(Cc2ccccc2)c(C)c1NC(=O)CCC(=O)O	i	-0.4
O=C(COC(=O)c1cc(S(=O)(=O)N2CCOCC2)cs1)c1ccccc1	i	2.2
COC(=O)c1cn(C)c2ccc(S(=O)(=O)N3CCCCC3)cc2c1=O	.	-0.5
CCOC(=O)Nc1cc(Br)c2c(c1)OCCO2	.	-1.7
CC(C)C(NC(=O)CN1C(=O)c2ccccc2S1(=O)=O)C(C)C	.	-2.0
c1ccc(-c2nc(NC3CC3)nc(-n3ccnc3)n2)cc1	.	0.1
Cc1nc2sc(C(c3ccc(Cl)cc3)N3CCN(C(=O)c4ccco4)CC3)c(O)n2n1 (stereo not given)	.	-1.3
COc1ccc(-c2nc3c(c(=O)n(C)c(=O)n3C)n2CC2CC(c3ccccc3)=NO2)cc1OC (stereo not given)	i	4.1
CCOc1ccc(CCNC(=O)c2cc3sccc3n2C)cc1OCC	.	0.4
O=C(C1CCC1)N1CCc2cc(S(=O)(=O)N3CCc4ccccc4C3)ccc21	i	0.9
COc1ccc(N2CCN(C(c3cccs3)C(C)NC(=O)c3ccco3)CC2)cc1 (stereo not given)	i	-1.4
O=C(NCCN1CCOCC1)c1cc(-c2ccc(Cl)cc2)on1	.	-0.4
CCN1CCN(c2ncc(C(=O)N3CCCc4ccccc43)c3ccccc23)CC1	.	-0.3
Cc1ccc(-c2nc3ncccn3c2NC(=O)C2CC2)cc1	.	-0.9
O=S(=O)(NCC(c1cccnc1)N1CCN(c2ccccc2)CC1)c1cccs1 (stereo not given)	.	2.5
O=S(=O)(NCc1ccccc1)c1cnc[nH]1	.	0.0
Cc1cccc(N2CCN(C(=O)Cn3cccc3)CC2)c1C	.	1.1
CCOC(=O)N1CCN(S(=O)(=O)c2cccc3nsnc23)CC1	.	-1.2
O=C(Cn1c2c(c(-c3ccccc3)cc1=O)CCCC2)N1CCCCCC1	.	-0.2
CN1C(=O)CSc2ccc(NC(=O)NCCC3=CCCCC3)cc21	.	2.2
CCCCC(CC)Cn1c2nc3ccccc3nc2c2c(=N)oc(C)nc21 (stereo not given)	23	3.9
O=C(O)CCc1ccc(-c2ccc(Br)cc2)o1	.	0.9
CCOc1ccc(NC2CCN(C(C)=O)CC2)cc1	.	1.7
COc1ccccc1CN(Cc1nc2ccccc2c(=O)[nH]1)C(=O)Nc1ccccc1	i	0.2
CC1Cc2ccccc2N1C(=O)CCS(=O)(=O)c1cccc2nonc12 (stereo not given)	.	0.9
CC(C)N1C(=O)CCC1C(=O)NCCc1ccccc1 (stereo not given)	.	-1.5
CCOC(=O)N1CCC(N2Cc3cccc(C(=O)O)c3C2=O)CC1	.	0.4
CCSc1nnc(NC(=O)CSc2nccn2-c2cccc(C)c2)s1	.	0.8
CCC1CCCCN1CCCNC(=O)C1CCN(S(=O)(=O)N2CCCCC2)CC1 (stereo not given)	.	-0.3
CSc1nsc(SC)c1NC(=O)N1CCCC1	.	1.4
COc1ccc(C2C(C(=O)N3CC(C)CC(C)C3)c3ccccc3C(=O)N2C)cc1 (stereo not given)	.	-0.1
CCOC(=O)C1CCCN(C(=O)Cn2ncc3c(=O)oc4ccc(C)cc4c32)C1 (stereo not given)	.	-1.6
O=C(NCc1cccnc1)C1CCN(S(=O)(=O)N2CCC3(CC2)OCCO3)CC1	.	-0.1
CC1(C)CC(=O)C2=C(C1)N(c1ccccc1)C(N)=C(C#N)C2c1cccnc1 (stereo not given)	.	-0.9
CCCOc1c(OC)cccc1C1CC(=O)Nc2cc(OC)c(OC)c(OC)c21 (stereo not given)	.	-2.3
O=C1CCCCCC1C1(O)C(=O)Nc2ccccc21 (stereo not given)	i	-0.3
COc1ccccc1-c1nc2n(n1)C(c1ccccc1Cl)C(C(N)=O)=C(C)N2 (stereo not given)	.	1.3

(cont.)
SMILES	VCAM-1 up	Proteasome disasm
CCCCOC(=O)C1=C(C)Nc2ncnn2C1c1ccc(OC)c(OC)c1OC (stereo not given)	.	1.4
Cn1ccnc1Sc1nnnn1-c1ccccc1	.	0.1
Cc1ccc(CCNC(=O)CN2CCN(Cc3ccccc3F)C2=O)cc1	.	-0.9
Cc1ccc(Cn2c(SCC(N)=O)nc3c2c(=O)n(C)c(=O)n3C)cc1	i	0.8
CCOCCCN1C(=O)CN(C2CCCCC2)C(=O)C1c1ccc(OC)c(OC)c1 (stereo not given)	.	-1.8
CCSCCNC(=O)c1cc(-n2cnnc2)ccc1Cl	i	-1.7
CCOc1ccc(NC(=O)C(C)Sc2nnc(C)n2C)cc1 (stereo not given)	i	-0.2
CCn1cc(SCC(=O)NCC2CCCO2)c2ccccc21 (stereo not given)	i	-1.4
CCOC(=O)Cn1cnc2c(nnn2-c2ccc(C)cc2)c1=O	.	-0.4
C=CCn1c(N)c(C(=O)Nc2ccccc2OC)sc1=S	.	2.2
CCn1cc(C(C)(C)C)c(C#N)c1NC(C)=O	.	-0.1
O=C1c2cccc3cccc(c23)C(=O)N1c1cccnc1	.	0.2
CCN(Cc1ccccc1)C(=O)CC1Oc2ccccc2NC1=O (stereo not given)	.	-1.6
COc1ccc(Cl)cc1NC(=O)c1ocnc1C	.	1.5
CCN(CC)CCOc1cccc(C(C)C)c1	i	-1.6

Four entries from above, with each value named:
O=C1CCCCCC1C1(O)C(=O)Nc2ccccc21 (stereo not given)
  VCAM-1 up = i
  Proteasome disasm = -0.3
COc1ccccc1-c1nc2n(n1)C(c1ccccc1Cl)C(C(N)=O)=C(C)N2 (stereo not given)
  VCAM-1 up = .
  Proteasome disasm = 1.3
CCCCOC(=O)C1=C(C)Nc2ncnn2C1c1ccc(OC)c(OC)c1OC (stereo not given)
  VCAM-1 up = .
  Proteasome disasm = 1.4
Cn1ccnc1Sc1nnnn1-c1ccccc1
  VCAM-1 up = .
  Proteasome disasm = 0.1

Continued.
SMILES	VCAM-1 up	Proteasome disasm
O=C(O)CC(CNS(=O)(=O)c1ccccc1)c1ccccc1 (stereo not given)	.	-0.6
O=C(c1cc(C2CC2)on1)N1CCOCC1	.	-1.9
O=C(c1ccco1)N1CCN(C(=O)c2ccc(COc3ccc(F)cc3)o2)CC1	.	-1.0
CC1CCN(S(=O)(=O)c2ccc(NC(=O)CSc3nnnn3C)cc2)CC1	i	2.0
CC(=O)N(CC(=O)Nc1nn(-c2ccccc2)nc1C(N)=O)Cc1ccccc1	.	-0.1
CCOC(=O)CNC(=O)CSc1nnc(Cn2c(=O)sc3ccccc32)n1-c1ccccc1C	.	-1.8
COc1ccc(NC(=O)N(CCC(C)C)C(C)c2ccccn2)c(OC)c1 (stereo not given)	.	1.1
Cc1ccc(N(C(C)C(=O)Nc2ccc(S(=O)(=O)N3CCOCC3)cc2)S(C)(=O)=O)cc1 (stereo not given)	i	1.0
CCOC(=O)c1cccc(NC(=O)CSc2nnc(-c3ccoc3C)n2CCOC)c1	i	-0.8
COCCOC(=O)C1=C(C)Nc2ncnn2C1c1ccc(F)cc1 (stereo not given)	i	-0.8
O=C(O)C1CCC(=O)N1C1CCCC1 (stereo not given)	.	1.5
Cc1nnc(NC(=O)CCC(=O)N2CCC(C)CC2)s1	i	-1.6
COC(=O)c1cc2sc(Cl)cc2n1CC(=O)Nc1ccc(OC)c(OC)c1OC	.	-0.3
Cc1ccc(N(CC(=O)NCC2CCCO2)S(C)(=O)=O)cc1Cl (stereo not given)	i	0.1
O=C(Cn1cccc1)N1CCN(C(c2ccccc2)c2ccccc2)CC1	i	1.4
CCOc1cccc2cc(-c3nnc(NCc4ccco4)s3)c(=O)oc12	.	-0.9
Cc1ccc(-n2nnc3c(=O)n(CC(=O)NCC4CCCO4)cnc32)cc1 (stereo not given)	.	-0.1
CCSc1nc2nc(C)cc(C)n2n1	.	1.2
Cc1ccc2oc(=O)n(CC(=O)O)c2c1	.	0.3
O=C(CCCCCn1c(=O)[nH]c2ccsc2c1=O)N1CCN(C2CCCCC2)CC1	.	-2.3
CS(=O)(=O)NCCSCc1c(F)cccc1Cl	i	-1.2
O=C(O)c1cccc(N2C(=O)CSC2c2c(F)cccc2Cl)c1 (stereo not given)	.	2.0
CC(C)OCCCN1C(=O)c2ccccc2C1C(=O)NC1CCCCC1 (stereo not given)	.	0.1
NC(=O)c1cc2ccc(O)cc2oc1=NCc1ccccc1	.	-0.8
COc1ccc(CCNC(=O)c2cc3ccccn3n2)c(OC)c1OC	.	1.8
CCn1cc(C(=O)N=c2sc3ccccc3n2C)c(=O)c2ccc(C)nc21	i	1.3
O=C(COC(=O)CSc1nnc(-c2ccc(Cl)cc2)o1)NCc1ccc2c(c1)OCO2	i	-1.3
CCN1CCN(CCNC(=O)c2ccc(CS(=O)(=O)c3ccccc3C)o2)CC1	.	-1.4
O=C(NCc1ccc(F)cc1)C1CCN(S(=O)(=O)N2CCC3(CC2)OCCO3)CC1	.	-1.6
CN(CC(=O)NCCc1ccccc1)S(=O)(=O)c1cccs1	.	1.6
CC1CCCCC1NC(=O)C1CCN(S(=O)(=O)N2CCC3(CC2)OCCO3)CC1 (stereo not given)	.	-0.7
CN(C)CCN1C(=O)C(O)=C(C(=O)c2cc3ccccc3o2)C1c1ccc(N(C)C)cc1 (stereo not given)	i	7.4
CC(=O)C1=C(O)C(=O)N(C2CCCCC2)C1c1ccccc1 (stereo not given)	i	0.0
